Compound activity: PubChem BioAssay, several laboratories
MLL AF4-AF9 inh: inhibitors of human MLL-AF4/AF9 interaction | hit rate 0.47% among 350,000 | inhibition, % at 10 µM | AlphaScreen, biotin-AF4 peptide binding to FLAG-AF9 | P42568 | AID 651704;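 active = every replicate reaching a set inhibition limit, whatever the replicate mean, cut at about 25% in these data; inconclusive = mean inhibition reaches that limit but some replicates miss it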;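 also: 0% = plate neutral control median and 100% = total signal loss; the record names both 10 and 1 µM as test concentration; the first replicate is given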
A1 inh: inhibitors of the anti-apoptotic protein A1, read as caspase activation. MEF A1-2A-BIM cells, Caspase-Glo 3/7 luminescence, 3 h; percent of clofoctol response, vehicle zero. caspase activation, % (test concentration not listed). hit rate 0.066% among 330,000. AID 2462;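 active = over half of replicate activation scores above 10%, or exactly half above 10 with the replicate mean above 10; inconclusive = replicate mean below 10 yet half the replicates above 10; inactive = over half of replicates below 10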;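 also: wells of about 30 µL received 50 nL stock; many hits fall short of the cut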
RanGTP-Impb inh: disruptors of Ran-importin-beta complex formation – biochemical, FRET, CFP-Ran, YFP-importin-beta, homogeneous, primary screen. cell-free CFP-Ran/YFP-importin-beta FRET ratio. hit rate 1.1% among 300,000. inhibition, % (test concentration not listed);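 active = most replicates above 15%; inconclusive = exactly half above 15%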;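 also: 0% = DMSO wells and 100% = Ran loaded with GDP instead of GTP; wells of about 40 µL received 100 nL stock; the first replicate is given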
Beta cell apopt: blocks beta cell apoptosis. INS-1E cytokine-induced death, ATP luminescence, 48 h; percent of positive-control rescue, neutral wells zero. protection from apoptosis, % (test concentration not listed). hit rate 0.8% among 300,000. AID 435005;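 active = all replicates at 75% or more, or half of them and the mean; inconclusive = half reach 75% but not the mean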;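 also: 0% = cytokine-treated negative control wells and 100% = positive control rescue; higher means more ATP so stronger rescue from cytokine killing; wells of about 40 µL received 100 nL stock; the first replicate is given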
LANA-H2B inh: blocks KSHV LANA binding to histone H2A/H2B; cell-free LANA-H2A/H2B peptide, fluorescence polarization; inhibition, % (concentration not given with the values); hit rate 0.6% among 320,000; AID 2629; in the data active = inhibition mostly above about 10%, no sharp cut-off; inactive = mostly below about 6.7%;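 also: stock transfer was 7.5 nL into about 10 µL; 0% = median of vehicle wells and 100% = median of positive control wells; one replicate is shown; the record names a cut of 25% in any replicate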
Target sequence (Q9QR71 whole entry, looked up): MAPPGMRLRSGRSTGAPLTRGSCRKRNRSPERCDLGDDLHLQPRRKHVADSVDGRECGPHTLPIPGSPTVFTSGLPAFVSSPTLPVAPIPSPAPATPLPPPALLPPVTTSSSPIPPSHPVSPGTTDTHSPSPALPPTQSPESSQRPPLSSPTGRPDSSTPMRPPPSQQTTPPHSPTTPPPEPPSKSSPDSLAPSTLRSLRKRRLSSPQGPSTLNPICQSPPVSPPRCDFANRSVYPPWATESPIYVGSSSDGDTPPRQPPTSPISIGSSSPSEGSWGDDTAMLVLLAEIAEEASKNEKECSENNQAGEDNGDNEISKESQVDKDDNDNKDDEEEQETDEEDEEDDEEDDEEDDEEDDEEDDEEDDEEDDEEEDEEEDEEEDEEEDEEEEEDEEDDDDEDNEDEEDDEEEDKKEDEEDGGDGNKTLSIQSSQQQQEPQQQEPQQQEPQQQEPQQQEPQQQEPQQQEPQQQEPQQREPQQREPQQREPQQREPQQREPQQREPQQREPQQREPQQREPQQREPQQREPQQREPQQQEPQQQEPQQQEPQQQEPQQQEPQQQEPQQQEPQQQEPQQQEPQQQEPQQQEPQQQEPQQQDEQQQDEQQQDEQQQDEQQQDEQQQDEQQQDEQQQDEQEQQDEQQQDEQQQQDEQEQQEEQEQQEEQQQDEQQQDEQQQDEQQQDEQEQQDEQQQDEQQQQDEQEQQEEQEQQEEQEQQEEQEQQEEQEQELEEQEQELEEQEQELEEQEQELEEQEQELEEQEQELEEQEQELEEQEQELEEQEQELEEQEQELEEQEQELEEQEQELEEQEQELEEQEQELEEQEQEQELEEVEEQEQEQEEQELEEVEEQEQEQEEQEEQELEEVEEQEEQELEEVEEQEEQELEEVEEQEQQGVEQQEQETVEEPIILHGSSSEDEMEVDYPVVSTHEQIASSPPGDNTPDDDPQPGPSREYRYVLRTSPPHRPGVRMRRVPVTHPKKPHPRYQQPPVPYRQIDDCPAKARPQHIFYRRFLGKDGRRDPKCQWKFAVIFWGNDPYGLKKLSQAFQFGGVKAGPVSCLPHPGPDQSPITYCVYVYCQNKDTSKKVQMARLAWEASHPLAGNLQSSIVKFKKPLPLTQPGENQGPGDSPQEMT
Calb FLC: affects C. albicans growth with fluconazole | C. albicans CaCi-2 (fluconazole-resistant clinical isolate) + fluconazole, Alamar Blue growth, 48 h | AID 1979 | hit rate 0.57% among 300,000 | growth inhibition, % (concentration not given with the values);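 active = most replicates above 75%; inconclusive = exactly half above 75%; inactive = most below 75%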;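 also: all wells also contain fluconazole at 8 µg/ml as a sub-toxic cotreatment; 0% = median of DMSO wells and 100% = median of geldanamycin control wells; wells of about 8 µL received 7.5 nL stock; the first replicate is given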
T cruzi repl: blocks replication of Trypanosoma cruzi; T. cruzi beta-gal in NIH3T3, luminescence, 90 h; inhibition, % (no concentration beside the values); hit rate 1.4% among 300,000; AID 1885;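 active = mean inhibition across valid replicates above about 55%, limit read from the data; inconclusive = mean below that limit but half or more replicates reach it; inactive = mean below it, under half of replicates reach it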;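 also: signal also drops with host cell toxicity which is not excluded here; 0% = plate median of DMSO wells and 100% = zero luminescence signal; higher percent means less beta-gal luminescence so fewer parasites; stock transfer was 50 nL into about 50 µL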
Vif TR-FRET: HIV-1 Vif–A3G interaction blockers – biochemical, TR-FRET, GST-Vif 1-94, biotin-A3G peptide, dose response retest, primary screen (AID 1117319) | inhibition, %; hits with a dose series show IC50 in µM | hit rate 0.57% among 260,000 | TR-FRET GST-Vif / biotin-A3G peptide binding; higher % means a stronger effect; test concentration not given here; strong numbers were not always called active;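 active = above the screen mean plus three standard deviations and confirmed in dose response; inconclusive = results disagree or hit not tested in dose response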;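 also: Vif residues 1-94 fused to GST binding biotinylated APOBEC3G peptide 110-148; 0% = full assay without inhibitor and 100% = GST in place of GST-Vif; retest series ran down from 100 µM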
Numbers without * were called inactive; u = inconclusive; x = no result given.

Each structure is followed by: MLL AF4-AF9 inh	A1 inh	RanGTP-Impb inh	Beta cell apopt	LANA-H2B inh	Calb FLC	T cruzi repl	Vif TR-FRET
CC(=O)CCc1oc2ccc(C)cc2c1-c1ccc(C)o1
    -1.3	1.9	-2.9	-6	-3.7	-3	3	-12%
CC1CCc2c(sc3ncnc(NCc4cccnc4)c23)C1 (stereo not given)
    -8.6	0.3	-3.5	5	-1.9	-23	8	24%
CCO[C@H]1OC(C(=O)Nc2ccccc2)=C[C@@H](C2CC2)[C@@H]1CCCO
    -0.3	-0.7	-0.8	0	-3.6	-12	-9	x
C/C(=N\NC(=O)NC1CCCCC1)c1ccc(OC(F)F)cc1OC(F)F
    0.4	0.0	4.6	3	0.3	-33	12	24%
C=CCn1c(SCc2ccc(C(=O)Nc3nccs3)cc2)nnc1-c1ccc(C)c(Cl)c1
    x	0.3	4.7	-4	7.2	-1	27	x
CCOc1ccccc1-n1nnnc1SCC(=O)Nc1cc(C)on1
    x	0.2	2.0	0	-4.1	39	-12	0%
COCCN(C(=O)c1csnn1)C(C(=O)NC1CCCCC1)c1ccc(C)cc1 (stereo not given)
    -1.6	-0.2	-0.5	-6	3.7	9	8	-17%
CC(NC(=O)CCNC(=O)c1ccc(C(C)(C)C)cc1)c1ccccc1 (stereo not given)
    1.2	-1.1	x	0	-2.0	x	x	-10%
CCCc1cc(=O)[nH]c(SCC(=O)NC(=O)c2ccccc2)n1
    -9.9	-0.4	1.1	0	1.9	35	-5	3%
CN1CCc2c(sc(/N=C/c3c[nH]c4ccccc34)c2C#N)C1
    4.8	1.6	4.1	4	38*	0	11	20%
Cc1cc2nsnc2c(S(=O)(=O)NCC(=O)O)c1C
    -42	0.5	-1.0	-3	2.2	-2	-6	x
CCCCCC[n+]1c(-c2ccc(Cl)cc2Cl)csc1Nc1ccccc1
    x	-0.7	-0.9	17	-5.4	-5	22	14%
COc1cccc(-c2nnc3sc(-c4ccco4)nn23)c1
    x	-2.4	3.6	-3	-0.8	4	14	5%
CCO[C@@H]1OC(C(=O)NCc2ccccc2)=C[C@H](C2CC2)[C@H]1CCCO
    1.9	0.2	-4.1	-11	-0.9	5	1	x
CCN(CC(=O)Nc1ccc(NC(C)=O)cc1)C(=O)C(c1ccccc1)c1ccccc1
    0.6	3.0	0.0	-1	-1.8	-6	-5	x
CCOc1ccc(N(CC)C(=O)c2nn(-c3ccc(OC)cc3)c(=O)c3c2c2ccccc2n3C)cc1
    -0.4	0.6	0.9	-13	8.5	23	23	x
COC(=O)c1sccc1S(=O)(=O)NC(C)c1cnn(-c2ccc(OC)cc2)c1C (stereo not given)
    3.2	-0.5	8.8	-2	3.2	4	-14	-4%
CN=C1SC(CC(=O)Nc2ccc(N3CCOCC3)cc2)C(=O)N1C (stereo not given)
    x	0.4	-4.0	5	1.2	21	2	1%
O=C(CCC(=O)c1cccs1)Nc1ccc(F)c(F)c1F
    x	1.3	-1.5	-3	0.0	17	-1	3%
O=C(/C=C/c1ccccc1)Nc1cccc(C(=O)O)c1
    -1.3	-8.8	6.8	2	0.7	2	-7	x

Each structure is followed by: MLL AF4-AF9 inh	A1 inh	RanGTP-Impb inh	Beta cell apopt	LANA-H2B inh	Calb FLC	T cruzi repl	Vif TR-FRET
CC(C)(C)C1=C(C#N)C(c2ccc3c(c2)OCO3)C(C#N)=C(N)O1 (stereo not given)
    x	0.8	3.5	-6	-0.4	0	4	u
Cn1cnnc1SCc1ccc(C(=O)N=Nc2c(O)n(C)c3ccccc23)cc1
    x	0.0	-1.5	1	-3.0	-1	-7	21%
CCn1c2ccccc2c2nnc(SCc3ccc(C(=O)OC)o3)nc21
    x	-0.4	-2.1	-10	-0.9	1	16	-1%
CCOC(=O)C1(Cc2cccc(OC)c2)CCN(CC=C(C)C)CC1
    -8.8	0.0	6.2	-2	-7.5	0	21	6%
O=C(C[C@@H]1C/C=C/CCCC(=O)O[C@H](c2ccccc2)CNC1=O)NCCO
    -2.8	2.8	x	0	-7.5	x	x	x
O=C(NC1CCCC1)C1CC(=O)N(c2ccc(F)cc2)C1 (stereo not given)
    0.3	0.2	5.6	-5	1.9	18	6	x
Cc1cc(=O)oc2cc(OCC(=O)OCC(=O)Nc3c(C)n(C)n(-c4ccccc4)c3=O)ccc12
    -0.6	0.7	-4.6	-1	2.9	6	-5	-5%
COc1cc(NC(=O)c2ccc(COCC(F)(F)F)o2)cc(OC)c1OC
    -0.9	0.0	0.8	-3	4.4	-1	-14	1%
CC(NC(=O)c1cn(C)c2ccc(S(=O)(=O)N3CCCC3)cc2c1=O)c1ccc2c(c1)OCCO2 (stereo not given)
    x	0.5	-1.3	6	1.9	0	29	3%
O=C(C[C@H]1C/C=C\C[C@@H](Cc2ccc(F)cc2)C(=O)OC[C@@H]2CCCN2C1=O)NCCO
    3.2	u	x	0	5.8	x	x	x
O=C(CCc1nnc(C2(c3ccc(Cl)cc3)CCC2)o1)NC1CC1
    -0.8	0.2	5.8	1	4.5	3	-1	14%
CCOc1ccc(-n2c(SCC(=O)Nc3ccc(Br)cc3)nc3n[nH]c(C)c3c2=N)cc1
    -2.5	8.4*	-1.7	17	-2.7	-5	27	1%
COc1ncnc2c1cnn2-c1ccccc1
    x	-2.6	1.1	0	-4.5	-1	-1	32%
C=CCc1ccc(OCCn2cncn2)c(OC)c1
    1.3	-0.2	u	-1	-4.0	-6	-2	2%
CCCc1nnc(SCC(=O)Nc2ccc(OCC)cc2)n1N
    x	1.0	-1.4	3	2.4	-7	-2	-5%
Cn1c(CNC(=O)CCNC(=O)c2ccccc2F)cc(=O)n(C)c1=O
    3.5	-2.8	0.5	-1	-1.8	2	-20	-8%
Cc1c(S(=O)(=O)N2CCN(c3cccc(Cl)c3)CC2)c(=O)n(C)c(=O)n1C
    -2.2	0.2	-3.3	1	1.3	-1	-11	x
O=C(Nc1ccc(F)cc1)c1cc(-c2ccccc2)no1
    -2.0	1.9	u	2	0.0	1	-11	-5%
Cc1cccc2cc(COC(=O)c3cccs3)c(=O)[nH]c12
    x	0.2	1.3	9	5.3	2	-11	1%
O=C(CCc1nnc(COc2ccccc2)o1)NCCc1cccs1
    -2.7	0.2	-5.5	-3	-2.5	1	-11	-14%

Each structure is followed by: MLL AF4-AF9 inh	A1 inh	RanGTP-Impb inh	Beta cell apopt	LANA-H2B inh	Calb FLC	T cruzi repl	Vif TR-FRET
Cc1cc(C)nc(NC(=O)c2ccc(COc3ccccc3Cl)cc2)c1
    -0.8	-1.3	-4.3	9	2.1	3	-10	14%
Cc1nnc(NC2=NCCC2)o1
    x	0.9	-0.7	-5	-5.2	19	-15	17%
COc1ccc(CCNC(=O)COC(=O)c2cccs2)cc1OC
    1.8	0.6	-2.2	2	-0.4	0	-5	x
Cc1ccccc1OCC(=O)Nc1ccc(S(=O)(=O)N2CCOCC2)cc1
    0.9	x	1.0	x	x	-4	-9	-1%
Cc1cc(C(=O)CSc2nc(N)cc(=O)[nH]2)c(C)n1CCc1ccc(F)cc1
    x	0.2	3.8	12	-0.2	-4	-26	-5%
CSc1ncc(Cl)c(C(=O)Nc2ccc(S(=O)(=O)Nc3nccc(C)n3)cc2)n1
    -3.3	0.7	1.6	-9	1.2	4	3	0%
O=C(Nc1ccccc1Cl)Oc1ccc2ccccc2c1
    x	1.0	-4.2	1	1.8	7	-9	6%
CC1CC(NC(=O)c2cc3c(=O)n4ccccc4nc3n2C)CC(C)(C)C1 (stereo not given)
    -23	0.0	7.2	11	-4.7	18	19	x
C#CCOCCOCCOCCNc1nc(N2CCOCC2)nc(N2CCN(C(=O)[C@H]([C@@H](C)CC)n3cc([C@@H](N)Cc4ccc(O)cc4)nn3)CC2)n1
    x	1.0	-4.1	-1	-3.7	-16	-11	5%
CSc1cccc(N2C(=O)C3CCCN3C2=S)c1 (stereo not given)
    0.7	0.5	4.0	-8	0.2	-5	-2	-8%
CCOC(=O)c1ccc(NC(=S)N2CCN(Cc3ccccc3)CC2)cc1
    x	-0.2	-0.8	-9	-3.8	-13	-17	3%
CS(=O)(=O)c1ccc(-c2nnc(NC(=O)c3ccc(S(=O)(=O)N4CCCC4)cc3)o2)cc1
    2.6	0.8	-2.6	-4	-1.9	-1	-15	0%
COc1cc2c(C(=O)N3CCOCC3)c(CSc3ccccc3)n(C)c2cc1Br
    11	0.6	3.6	0	0.6	30	45	22%
Cc1ccc(C)c2c1cc(C)c1nnc(SCC(=O)NCc3ccc4c(c3)OCO4)n12
    1.5	0.2	1.2	x	-2.7	-46	7	x
CCOC(=O)C1CCN(CC(=O)Nc2c(C(=O)OC)[nH]c3ccc(Cl)cc23)CC1
    x	0.4	0.0	1	-3.4	25	44	3%
COc1cccc(-c2ccc(=O)n(CC(=O)NCCN3CCOCC3)n2)c1
    x	0.7	0.4	1	1.4	-9	-10	11%
NS(=O)(=O)c1ccc(CCNC(=O)c2cc([N+](=O)[O-])ccc2N2CCCCC2)cc1
    1.9	-0.2	0.6	9	-6.1	-9	31	3%
CCc1sc(C(=O)Nc2ccc(NC(C)=O)cc2)cc1C
    0.9	0.6	-3.1	2	-4.4	25	-13	x
O=C(CCCCCNc1nc(=S)[nH]c2ccccc12)NCCc1ccccc1
    x	0.5	-2.1	2	-1.5	27	3	x
Cc1c(C(=O)N2CCN(C)CC2)oc2ccc(S(=O)(=O)N3CCOCC3)cc12
    x	0.2	x	1	3.1	x	x	-1%

Each structure is followed by: MLL AF4-AF9 inh	A1 inh	RanGTP-Impb inh	Beta cell apopt	LANA-H2B inh	Calb FLC	T cruzi repl	Vif TR-FRET
CC(=Nc1cc(C(=O)c2ccccc2)ccc1N)C1=C(O)CC(C)(C)CC1=O
    -1.5	-1.7	-4.4	-9	0.8	11	35	5%
COc1ccc(NC(=S)NCc2ccccn2)cc1OC
    0.7	1.8	3.3	-3	3.6	14	-5	16%
O=C(O)CC(Sc1n[nH]c(=S)s1)C(=O)O (stereo not given)
    4.8	0.3	3.7	-6	-1.2	19	x	x
CN(CC(=O)Nc1c(Cl)cccc1Cl)C(=O)C1CSC2(C)CCC(=O)N12 (stereo not given)
    u	0.8	-0.5	-6	-0.6	-2	-12	-7%
COc1ccccc1/C=C(/NC(=O)c1ccccc1)C(=O)NCCN1CCOCC1
    -5.9	0.0	u	-6	-4.0	-11	7	-1%
CC(=O)N1C(C(=O)O)CSC1c1ccc(C)cc1 (stereo not given)
    -1.5	1.1	0.7	-1	0.6	-1	-10	-7%
C#CC[N+](CC)(CC)CC#Cc1cccc(Cl)c1
    x	0.0	-2.4	5	-3.6	7	-8	28%

Three structures from above, ordered by formula weight, highest first.
Each structure is followed by: MLL AF4-AF9 inh	A1 inh	RanGTP-Impb inh	Beta cell apopt	LANA-H2B inh	Calb FLC	T cruzi repl	Vif TR-FRET
COc1ccccc1/C=C(/NC(=O)c1ccccc1)C(=O)NCCN1CCOCC1
    -5.9	0.0	u	-6	-4.0	-11	7	-1%
CC(=Nc1cc(C(=O)c2ccccc2)ccc1N)C1=C(O)CC(C)(C)CC1=O
    -1.5	-1.7	-4.4	-9	0.8	11	35	5%
CC(=O)N1C(C(=O)O)CSC1c1ccc(C)cc1 (stereo not given)
    -1.5	1.1	0.7	-1	0.6	-1	-10	-7%
